High-throughput results: PubChem BioAssay, ICCB-Longwood Screening Facility, Harvard Medical School
AID504770 – growth inhibitors of E. coli YBA685 in a screen for V. cholerae RctB (chromosome II replication) inhibitors. E. coli YBA685 rctB-dependent plasmid, OD600 growth, 3 h; active compounds read low. z-score (test concentration not listed). 130,000 tested, 0.27% active. AID 504770;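 active = z-score under -2 on both plates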;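 note: wells of about 30 µL received 100 nL stock; score is relative to mean and SD of the test wells; the first replicate is given; strong numbers were not always called active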
CapD inh – blocks the Bacillus anthracis CapD enzyme; purified CapD enzyme, fluorescence intensity read-out; active compounds read low; some hits fall short of the stated cut; z-score (no concentration beside the values); 140,000 tested, 0.23% active; AID 492967;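 active = z-score under -4 in either of two replicates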;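 note: stock transfer was 100 nL into about 40 µL; score is relative to mean and spread of the plate; one replicate is shown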
* = called active by the depositor; . = no result given.

compound | CapD inh | AID504770
CSc1nc(N(C)NC(=O)c2ccc(Cl)cc2)c2ccccc2n1 | 0.17 | .
FC(F)(F)c1ccc(CN2CCCCCCC2)cc1 | 0.015 | -0.2
CC(C)(C)NC(=O)c1ccc(Cn2cc(C(F)(F)F)ccc2=O)cc1 | -0.44 | .
CC(=O)OCC1OC(n2cc(F)c(=O)[nH]c2=O)C(OC(C)=O)C1OC(C)=O (centres undefined) | -0.025 | .
O=C1Nc2ccccc2S/C1=C\c1ccccc1 | . | 1.6
CCC(C)(C)c1ccc(S(=O)(=O)N2CCC(C(=O)c3ccc(F)cc3)CC2)cc1 | -0.35 | .
CC(C)NC(=O)Cc1ccc(Br)cc1 | . | -0.4
NCCNc1cc(-c2ccccc2)nc2ccccc12 | 19 | -0.55
Cn1cc(SCC(=O)N2CCCC2)c2ccccc21 | -0.24 | -1.4
O=C(CC1(O)C(=O)N(CCc2ccccc2)c2ccccc21)c1ccc(-c2ccccc2)cc1 (centres undefined) | -0.13 | .
O=C(Nc1cccc(-c2nnn(CC(=O)N3CCc4ccccc4C3)n2)c1)C1CCC1 | . | 0.1
S=c1nc(-c2sccc2OCc2ccc(Cl)cc2Cl)[nH][nH]1 | 35 | .

compound | CapD inh | AID504770
CC1(C)CC(=O)C2=C(C1)c1c(ccc3ccccc13)NC2c1cn(CC(=O)Nc2ccc3c(c2)OCO3)c2ccccc12 (centres undefined) | 9.8 | .
O=C(COC(=O)c1ccccc1NCCO)NCc1ccc(F)cc1 | . | -0.6
Cc1ccccc1N1C(=O)Cc2ccccc2C1=O | . | 0.1
COc1ccc(C2=NN(C(=O)CCC(=O)O)C(c3ccc(Cl)cc3)C2)cc1 (centres undefined) | 11 | .
FC(F)(F)c1ccc(NCc2cn3ccccc3n2)cc1 | -0.26 | -1.2
COc1ccc(C2=NN(C(=O)c3ccc(Br)o3)C(c3ccc(OC)cc3)C2)cc1 (centres undefined) | 0 | .
CN(C)C(=O)c1cccc2c1NC(c1ccc(Br)cc1)C1CC=CC21 (centres undefined) | -0.47 | .
COc1ccc(/C=C(\C#N)c2nc3ccccc3[nH]2)cc1 | -0.97 | .
CCOC(=O)N/N=C\c1cn(C)c2ccccc12 | -0.58 | 0.25
Cc1cc(NC2=CC(=O)CCC2)ccc1I | 0.24 | -0.25
CCN(CC)C(=O)C1CCCN(c2ncnc3c2c(-c2ccccc2)cn3-c2ccc(OC)cc2)C1 (centres undefined) | 1.8 | .
O=C(OC(C(=O)c1ccccc1)c1ccccc1)c1ccco1 (centres undefined) | . | -0.15

compound | CapD inh | AID504770
CCOC(=O)c1ccc2[nH]c3c(c2c1)CCCCC3=O | . | 1.4
COc1ccc(NC(=O)CSc2nc3ccccc3c(=O)n2CCCC(=O)NCCc2ccccc2)c(OC)c1 | -0.57 | .
CCOC(=O)c1sc(=S)n(-c2ccccc2F)c1N | -0.61 | .
N#Cc1sc2nc(-c3ccncc3)cc(C(F)(F)F)c2c1N | -0.45 | 0.05
COC(=O)COc1cc(C)nc(SC)n1 | . | -0.4
CCC1CCCCN1C(=O)CN1C(=O)c2ccccc2C1=O (centres undefined) | 0.68 | -0.2
O=C(NC1CCCCCCCCCCC1)c1ncn[nH]1 | -0.17 | -0.2
CC(C)n1c(SCC(=O)O)nc2cc(Cl)ccc21 | 10 | 0.85
N#Cc1c(-c2ccc(Cl)cc2)cc(-c2cccc(C(F)(F)F)c2)[nH]c1=O | 19 | .
CCOc1ccc(C(O)C2CCNCC2)cc1 (centres undefined) | 0.08 | -0.2
C=CCn1c(SCC(=O)OCC)nc2c(c1=O)C1(CCCC1)Cc1ccccc1-2 | 0.17 | .
Cc1ccc(/C=C2\SC(=S)N(CC(=O)N3CCN(C)CC3)C2=O)cc1 | -0.41 | -0.6

Profiles, quoted from the list.
Results for C=CCn1c(SCC(=O)OCC)nc2c(c1=O)C1(CCCC1)Cc1ccccc1-2 = CapD inh = 0.17; AID504770 = .
Results for N#Cc1sc2nc(-c3ccncc3)cc(C(F)(F)F)c2c1N = CapD inh = -0.45; AID504770 = 0.05

The listing picks up with the 7 entries that preceded the break.
compound | CapD inh | AID504770
CCC1CCCCN1C(=O)CN1C(=O)c2ccccc2C1=O (centres undefined) | 0.68 | -0.2
O=C(NC1CCCCCCCCCCC1)c1ncn[nH]1 | -0.17 | -0.2
CC(C)n1c(SCC(=O)O)nc2cc(Cl)ccc21 | 10 | 0.85
N#Cc1c(-c2ccc(Cl)cc2)cc(-c2cccc(C(F)(F)F)c2)[nH]c1=O | 19 | .
CCOc1ccc(C(O)C2CCNCC2)cc1 (centres undefined) | 0.08 | -0.2
C=CCn1c(SCC(=O)OCC)nc2c(c1=O)C1(CCCC1)Cc1ccccc1-2 | 0.17 | .
Cc1ccc(/C=C2\SC(=S)N(CC(=O)N3CCN(C)CC3)C2=O)cc1 | -0.41 | -0.6
N#Cc1ccc(N2CCN(S(=O)(=O)c3ccc(Cl)c(Cl)c3)CC2)cc1 | -0.045 | .
Cc1ccc(S(=O)(=O)N/N=C2\C3CN4CCN(C3)CC2(c2ccccc2)C4)cc1 | 0.11 | 1.2
COCC(=O)NCCc1nc2ccccc2n1Cc1c(F)cccc1Cl | -0.55 | -0.15
Cc1ccnc(SC(=O)c2cccnc2)n1 | . | -1.6
Cc1cc(Sc2nnc(N)s2)c2ccccc2n1 | 0.38 | .
Cc1c(OCC(=O)N(C)c2ccccc2)ccc2c3c(c(=O)oc12)CCC3 | 4.2 | -0.35
CCc1oc2ccccc2c1C#N | . | -1
CCOC(=O)c1sc2nc(SCC(=O)NC3CCCCC3)n(Cc3ccco3)c(=O)c2c1C | 0.04 | .
CC1(C)NC(=O)C(C#N)=C(SCc2ccccc2)S1 | -3.2 | -0.6
CCn1c(/C(C#N)=C(\O)CCc2ccccc2)nc2ccccc21 | 0.54 | -0.2
CCOC(=O)C1=C(C)N=c2s/c(=C\c3cc([N+](=O)[O-])ccc3N3CCOCC3)c(=O)n2C1c1ccc(F)cc1 (centres undefined) | -0.065 | .
CCOn1c(=O)c(C)[n+]([O-])c2ccccc21 | 6 | .

compound | CapD inh | AID504770
O=C(CCCn1nc(-c2ccccc2)c2ccccc21)NCc1ccco1 | 9.1 | -0.55
O=C(c1cc(Cl)nc(Cl)c1)N1CCN(Cc2cc3cccc4c3n(c2=O)CCC4)CC1 | 1 | .
Cn1c(C(=O)N2CCCC2)cc2c(=O)n3ccccc3nc21 | 63 | -0.55
CN(C)/C=C(\C=[N+](C)C)c1cc(/C(C=[N+](C)C)=C\N(C)C)[nH]n1 | -1.3 | -0.2
Nc1c(C(=O)c2ccc(Cl)cc2)sc2nc(-c3cccs3)cc(C(F)(F)F)c12 | 21 | .
NC(=O)c1ccccc1OC(C(=O)N1CCCC1)c1ccccc1 (centres undefined) | . | 0.6
CCc1nc2cccnc2n1CCNC(=O)NC1CCCCC1 | . | 0.1
CCOc1ccc(-c2cc(NC(=O)c3cc4ccc5cccnc5c4[nH]3)on2)cc1OCC | 2.2 | 0
NC(=S)CS(=O)(=O)c1ccccn1 | 8.8 | -1.2
Cc1ccc(CN2CCN(CC(=O)NCCCN3CCN(c4cccc(Cl)c4)CC3)C2=O)cc1 | 0.35 | -0.8
O=C(O)Cn1ncc2c3ccccc3n(Cc3ccccc3F)c2c1=O | 29 | 0.95
N#CCN1CCC/C1=C(/C#N)C(=O)c1ccccc1 | 0.28 | 0.4

compound | CapD inh | AID504770
CCC(=O)N(c1nnc(SCC(=O)N2CCCC2=O)s1)C1CC1 | . | 0.6
COC1(C(=O)NN)COc2ccccc2O1 (centres undefined) | -1.3 | 1.8
CCS(=O)(=O)c1nc(S(=O)(=O)c2ccc(Cl)cc2)c(NCc2ccc(OC)cc2)s1 | -0.12 | -1.8
O=C(Nc1ccccc1Cc1ccccc1)c1cc2c(nc3sccn32)s1 | . | 0.65
Cc1ccc(N2CC(NC(=O)N(C)C3CCN(C)CC3)CC2=O)cc1C (centres undefined) | . | 2.2
CCOC(=O)c1sc(NC(=O)C(C)Sc2nnc(CNC(=O)c3cccc(C)c3)n2C)c(C(=O)OCC)c1C (centres undefined) | -0.39 | .
CCN1CCN(C(c2cccnc2)c2ccc3cccnc3c2O)CC1 (centres undefined) | -0.87 | 1.2
COc1ccccc1OCc1nc(-c2ccncc2)no1 | -0.51 | -0.7
CC1=C/C(=N\OC(=O)Cc2ccccc2)C(C)=CC1=O | . | -1.1
O=C(NC(Cc1c[nH]c2ccccc12)C(=O)OCc1ccccc1)OCc1ccsc1 (centres undefined) | -1.1 | .
O=C(O)c1ccccc1-c1nc(-c2cccnc2)no1 | -0.47 | -1.1
COc1ccc(NC(=O)C(Cc2ccccc2)NS(=O)(=O)c2cccs2)c(OC)c1 (centres undefined) | -0.61 | -0.65

compound | CapD inh | AID504770
CCc1cc2c(NC3CCCCC3)ncnc2s1 | 0.38 | -1
CS(=O)(=O)n1cnc2ccccc21 | -0.14 | -1.6
CCCCOC(=O)c1ccc(-n2c3nc(=O)n(CCCC)c(=O)c-3cc3ccccc32)cc1 | -0.53 | .
N#CCc1ccc(NC(=O)Nc2ccccc2)cc1 | 0 | -0.75
CCOC(=O)C(C)c1ccc2cc(OC)ccc2c1 (centres undefined) | 2.4 | -0.65
CC(C)(C)OC(=O)N/N=C\c1ccco1 | 0.21 | 0.25
CC(Sc1nnc(NC2CC2)s1)C(=O)Nc1ccc2c(c1)OCO2 (centres undefined) | . | -0.4
Cc1csc(-c2c(C(F)(F)F)oc3cc(O)c(C)cc3c2=O)n1 | 0.37 | -0.3
Cc1cc(C)c(C2=NON3N(C(=O)c4cccs4)c4ccccc4N23)c(C)c1 | 0.13 | -0.2
Cc1ccc(C)n1-c1cc(-c2ccccc2)[nH]n1 | -1.5 | -0.25
Cc1cc(C)c(C)c(S(=O)(=O)N(C)C)c1C | -0.52 | 0.65
O=C1c2ccccc2C(=O)N1/N=C/c1cc(Br)ccc1O | -0.67 | .

compound | CapD inh | AID504770
Cc1nc(SCC(=O)Nc2ccc3c(c2)OCCCO3)n(C2CCCCC2)c1C | . | -0.85
CN(C)c1cccc(C(=O)Nc2ccc(Br)cc2)c1 | 3.8 | -0.6
CC1(C)OC2C(CS(C)(=O)=O)OC(n3ncc(=O)[nH]c3=O)C2O1 (centres undefined) | . | -0.2
NNC(=O)Cc1csc(-c2ccc(F)cc2)n1 | . | -0.6
COc1ccc(-c2cc3c(n2Cc2ccc(F)cc2)CC(C)(C)CC3=O)cc1 | 1.2 | 1.2
O=C(CCc1nc(-c2ccccc2)no1)Nc1cccnc1 | . | -0.15
O=C(O)CSCC(=O)N1CCN(c2ccc(C(F)(F)F)cn2)CC1 | 8.6 | -0.8
COc1cc(C2C(C#N)=C(N)N(N(C)C)C3=C2C(=O)CCC3)ccc1OCc1ccccc1 (centres undefined) | -0.48 | .
O=C1c2cccnc2C(=O)N1CCc1ccc(S(=O)(=O)NCCc2ccccc2)cc1 | 0.14 | 0.75
Cn1c(SCC(=O)Nc2ccccc2)nnc1-c1ccco1 | 0.51 | -0.85
CCOC(=O)CCc1nn(C)c(=O)c2ccccc12 | . | 1.9
O=C1c2ccccc2C(Nc2cccnc2)N1Cc1ccccc1 (centres undefined) | 0.48 | 0.8

compound | CapD inh | AID504770
CN(C)c1nc(N(C)C)nc(N2CC(=O)N(c3ccc(Cl)cc3Cl)C2=N)n1 | -0.23 | .
O=C(O/N=C1\CCCc2oc3c(c21)CCCC3)c1ccc(F)cc1 | 0.28 | -0.15
Cc1nc2ccc(NC(=O)C3=CC=CN4CCS(=O)(=O)N=C34)cc2s1 | . | 1.4
Cn1c(-c2ccc(Cl)cc2)cs/c1=N\C(=S)NCCc1ccccc1 | -0.53 | 1.1
CO/N=C1/CC(C)(C)Cc2c(C(=O)O)sc(SC)c21 | -1.6 | -0.65
CCCNS(=O)(=O)c1ccc(NC(=O)c2ccccn2)cc1 | -0.24 | -0.55
CC(C)(C)NC(=O)c1ccc(C(=O)O)s1 | 0.46 | -0.65
O=C(Nc1ccc2c(c1)OCO2)C12CC3CC(CC(C3)C1)C2 | 0.6 | -0.15
O=C(c1ccccc1Br)N1CCN(Cc2ccccc2)CC1 | 0.14 | .
COc1ccc(OCC(=O)N2c3ccccc3-c3c(ssc3=S)C2(C)C)cc1 | 0.81 | .
COc1cc(/C=c2\sc3nc(-c4oc5ccccc5c4C)nn3c2=O)cc(OC)c1OC | 0.08 | -0.55
COC(=O)CC1SC(=O)NC1=Nc1ccc(OC)cc1 (centres undefined) | -0.055 | 0.15

compound | CapD inh | AID504770
CCCNC(=O)c1ccc(NC(C)=O)cc1 | 0.075 | 0
Clc1ccc(CN2CCCNCC2)c(Cl)c1 | -0.4 | -0.6
CN(Cc1ccccc1)C(=O)COC(=O)Cc1c(Cl)cccc1Cl | 0.52 | -0.15
CCOC(=O)CC1=Nn2c(nnc2-c2ccc(Cl)cc2)SC1 | . | -0.25
COC(=O)C(CO)NS(=O)(=O)c1ccc(C)cc1 (centres undefined) | -0.63 | -0.9
CCOc1ccc(C(=O)NCC(=O)N2CCC(C)CC2)cc1OCC | . | -0.55
Cc1c(C(=O)NCC2COc3ccccc3O2)sc2ncn(CC(=O)Nc3cccc(C(F)(F)F)c3)c(=O)c12 (centres undefined) | 1.3 | .
CCN(CC)c1ccc(C(=O)O)cc1 | 0.6 | 0.25
CCOc1ccc(CCNC(=O)Cn2ncc3ccccc32)cc1OCC | -2 | 0
CCN1CCN(CC(O)COc2ccc3c(c2)CCC3)CC1 (centres undefined) | -0.31 | -0.65
Cc1cc(C)nc(SCC(=O)N/N=C2\CCc3ccccc32)n1 | . | 0.1
CCOC(=O)c1cc(C)nn1C(=O)c1c(F)cccc1Cl | 10 | -0.5
C(=C\c1ccccc1)/CSc1ncnc2ccccc12 | -0.17 | -0.5
COc1ccc(OCC(=O)NCCc2ccccc2)cc1 | -0.96 | 1.6

A portion of the library, so the mix of outcomes need not match the whole.
